# HIV Env fusion: inhibitors of HIV-1 Env-driven cell-cell fusion, primary screen, HeLa-JRFL effector, CEM21 target cells, luciferase | inhibition, % at 12.3 µM | actives 1.1% (n = 360,000);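 active = mean replicate inhibition score of at least 50 and every replicate individually at or above 50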;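 note: 0% = plate neutral controls and 100% = maraviroc near 300 nM; one replicate is shown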
# UUG fidelity: modulators of yeast start codon fidelity, primary screen, whole organism, S. cerevisiae, single point, plate reader; activity score, % at 18.7 µM; actives 0.13% (n = 350,000); S. cerevisiae UUG-firefly luciferase reporter, luminescence/redox ratio;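 active = replicate mean at a twofold rise or more, about +100% in these data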;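 note: firefly luciferase made from a UUG start codon reports start codon fidelity; reporter light over untreated wells divided by growth signal over untreated wells; some hits fall short of that in this replicate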
# Starred values were filed as active, the others as inactive; [ ] = dose if it differs, or a comment. This is a subset (hit frequency here may not be typical).
HIV Env fusion | UUG fidelity | SMILES
18.7[16.7 µM] | 13.7 | Cc1ccc(S(=O)(=O)N(C)C[C@@H]2Oc3c(NS(=O)(=O)c4ccc(F)cc4)cccc3C(=O)N([C@@H](C)CO)C[C@H]2C)cc1
42.5[16.7 µM] | -10.7 | COC(=O)C[C@@H]1C[C@@H]2c3cc(NC(=O)Nc4ccc(OC)cc4)ccc3O[C@@H]2[C@H](CO)O1
5.5[16.7 µM] | 20.5 | C[C@@H]1CN([C@@H](C)CO)C(=O)c2cc(NC(=O)CCC(F)(F)F)ccc2O[C@@H](C)CCCCO[C@H]1CN(C)C(=O)c1ccccc1
26.8[16.7 µM] | -9.9 | CO[C@@H]1CN(C)C(=O)c2cc(NC(C)=O)ccc2OC[C@H](C)N(C(=O)CC2CC2)C[C@H]1C
20.4[16.7 µM] | -10.4 | Cc1ccc(S(=O)(=O)N(C)C[C@H]2Oc3ccc(NC(=O)Nc4ccc5c(c4)OCO5)cc3CC(=O)N([C@@H](C)CO)C[C@@H]2C)cc1
-10.9[16.7 µM] | -5.7 | O=C(NCC[C@@H]1CC[C@H](NS(=O)(=O)c2cccc(F)c2)[C@@H](CO)O1)Nc1cc(F)ccc1F
-19.2[16.7 µM] | 2.4 | C[C@H](CO)N1C[C@H](C)[C@H](CN(C)C(=O)C2CCCCC2)OCCCC[C@H](C)Oc2ccc(NS(=O)(=O)c3cn(C)cn3)cc2C1=O
6.3[16.7 µM] | 10.0 | Cc1ccc(S(=O)(=O)N(C)C[C@H]2OCCCC[C@H](C)Oc3ccc(NC(=O)Nc4c(C)noc4C)cc3C(=O)N([C@@H](C)CO)C[C@H]2C)cc1
-6.1[16.7 µM] | 17.3 | C[C@H](CO)N1C[C@H](C)[C@H](CN(C)C(=O)Nc2cccc3ccccc23)Oc2ccc(NC(=O)Nc3cccc4ccccc34)cc2C1=O
-25.4[16.7 µM] | 6.0 | COc1ccc(CN(C)C[C@@H]2OCCCC[C@@H](C)Oc3ccc(NC(=O)Nc4c(C)noc4C)cc3C(=O)N([C@H](C)CO)C[C@@H]2C)cc1
3.0[16.7 µM] | -5.3 | CC(C)CC#Cc1ccc2c(c1)O[C@H](CN(C)Cc1cccc(F)c1)[C@H](C)CN([C@@H](C)CO)S2(=O)=O
-14.3[16.7 µM] | 0.5 | CCCC(=O)Nc1ccc2c(c1)C(=O)N(C)[C@@H]1CC[C@H](CC(=O)NCc3ccccc3)O[C@H]1CO2
10.2[16.7 µM] | 24.2 | C[C@H]1CN([C@@H](C)CO)C(=O)c2cc(C#CC3CCCCC3)cnc2O[C@H]1CN(C)C(=O)NC1CCCC1
28.4[16.7 µM] | -13.8 | CN1C(=O)c2cc(NC(=O)c3ccc(F)cc3)ccc2OC[C@H]2O[C@@H](CC(=O)NCC3CC3)CC[C@H]21
-4.7[16.7 µM] | 4.7 | Cc1noc(C)c1NC(=O)NCC[C@@H]1CC[C@H](NC(=O)c2ccncc2)[C@@H](CO)O1
-17.6[16.7 µM] | 7.7 | C[C@@H]1CCCCO[C@H](CN(C)C(=O)c2ccccc2)[C@H](C)CN([C@H](C)CO)C(=O)c2cc(NC(=O)c3ccncc3)ccc2O1
-3.9[16.7 µM] | 0.8 | C[C@@H]1CN([C@@H](C)CO)C(=O)c2cc(NS(=O)(=O)c3ccc(F)cc3)ccc2O[C@H]1CN(C)C(=O)Nc1ccc(C(F)(F)F)cc1
-0.8[16.7 µM] | -6.1 | COc1cccc(-c2cnc3c(c2)C(=O)N([C@@H](C)CO)C[C@@H](C)[C@@H](CN(C)C(=O)CN(C)C)O3)c1
5.6[16.7 µM] | -13.1 | COCC(=O)Nc1ccc2c(c1)C(=O)N(C)C[C@@H](OC)[C@@H](C)CN(C(=O)c1ccccc1F)[C@H](C)CO2
13.5[16.7 µM] | -0.1 | COc1ccc(C#Cc2ccc3c(c2)[C@]2(C(=O)N3)[C@H](c3ccc(O)cc3)N3[C@H](c4ccccc4)[C@H](c4ccccc4)OC(=O)[C@H]3[C@@H]2C(=O)O)cc1
16.8[16.7 µM] | 21.1 | O=S(=O)(N[C@@H]1CC[C@H](CCn2cc(-c3ccccc3F)nn2)O[C@H]1CO)c1ccc(F)cc1
9.6[16.7 µM] | 21.7 | COCC(=O)N(C)C[C@@H]1Oc2ncc(C#Cc3ccc(OC)cc3)cc2C(=O)N([C@H](C)CO)C[C@H]1C
-49.6[16.7 µM] | 9.6 | C[C@H]1CN([C@@H](C)CO)C(=O)Cc2cc(NC(=O)Cc3ccccc3)ccc2O[C@H]1CN(C)Cc1ccc(Oc2ccccc2)cc1
15.6[16.7 µM] | 9.7 | C[C@H](CO)N1C[C@H](C)[C@@H](CN(C)C(=O)Nc2cccc3ccccc23)Oc2ccc(NC(=O)CCC(F)(F)F)cc2C1=O
3.1[16.7 µM] | 2.9 | NCC[C@@H]1CC[C@@H](NC(=O)NC2CCCCC2)[C@H](CO)O1
-8.9[16.7 µM] | 2.2 | C[C@H]1CN([C@@H](C)CO)C(=O)c2cccc(NS(=O)(=O)c3ccc(F)cc3)c2O[C@@H]1CN(C)C(=O)Nc1ccc(F)cc1
-50.9[16.7 µM] | -10.5 | C[C@H]1CCCCO[C@@H](CN(C)C(=O)Nc2ccccc2)[C@@H](C)CN([C@@H](C)CO)C(=O)c2cc(NC(=O)Cc3ccccc3)ccc2O1
5.1[16.7 µM] | 6.1 | COCC#Cc1ccc2c(c1)O[C@@H](CN(C)Cc1ccc3c(c1)OCO3)[C@@H](C)CN([C@H](C)CO)S2(=O)=O
9.5[16.7 µM] | -5.7 | O=C(C[C@H]1C[C@@H]2c3cc(NC(=O)C4CCOCC4)ccc3O[C@@H]2[C@H](CO)O1)NCCc1ccccc1
17.3[16.7 µM] | -3.0 | C[C@H]1CN([C@@H](C)CO)C(=O)c2cc(NC(=O)C3CC3)ccc2O[C@@H]1CN(C)C(=O)Nc1ccccc1
-10.7[16.7 µM] | -15.6 | O=C(C[C@@H]1C[C@@H]2c3cc(NC(=O)c4cccnc4)ccc3O[C@@H]2[C@@H](CO)O1)NCc1cccnc1
-10.5[16.7 µM] | -6.6 | Cc1ccc(S(=O)(=O)N(C)C[C@@H]2OCCCC[C@H](C)Oc3ccc(NS(=O)(=O)c4cn(C)cn4)cc3C(=O)N([C@@H](C)CO)C[C@H]2C)cc1
8.0[16.7 µM] | -3.9 | C[C@H](CO)N1C[C@H](C)[C@@H](CN(C)Cc2ccncc2)OCCCC[C@H](C)Oc2ccc(NC(=O)c3ccccc3)cc2C1=O
-20.6[16.7 µM] | 2.7 | CC(C)COC(=O)N(C)C[C@@H]1OCc2cn(nn2)CCCC(=O)N([C@@H](C)CO)C[C@@H]1C
2.4[16.7 µM] | -15.4 | CC(=O)N[C@@H]1CC[C@H](CC(=O)NCc2ccc(Cl)cc2)O[C@H]1CO
8.5[16.7 µM] | -4.3 | CCC(=O)N(C)C[C@@H]1Oc2ncc(C#C[C@@H](C)O)cc2C(=O)N([C@@H](C)CO)C[C@H]1C
1.8[16.7 µM] | -13.0 | O=C(C[C@@H]1CC[C@@H](NC(=O)c2ccc3c(c2)OCO3)[C@@H](CO)O1)NCc1ccc(F)cc1
12.2[16.7 µM] | 8.9 | O=C(N[C@H]1CC[C@@H](CCNS(=O)(=O)c2ccc(F)cc2)O[C@@H]1CO)C1CC1
-5.5[16.7 µM] | 1.0 | CNC[C@H]1Oc2ccc(NS(=O)(=O)c3ccc(OC)cc3)cc2CC(=O)N([C@@H](C)CO)C[C@H]1C
-4.9[16.7 µM] | -0.9 | O=C(C[C@@H]1C[C@@H]2c3cc(NC(=O)C4CCC4)ccc3O[C@@H]2[C@@H](CO)O1)NCCN1CCCCC1
-2.1[16.7 µM] | 0.5 | COCC(=O)N(C)C[C@@H]1Oc2ncc(-c3ccc(C)cc3)cc2C(=O)N([C@H](C)CO)C[C@H]1C
1.7[16.7 µM] | -1.2 | C[C@@H]1CCCCO[C@H](CN(C)C(=O)Nc2cccc3ccccc23)[C@@H](C)CN([C@H](C)CO)C(=O)c2cc(NC(=O)c3ccncc3)ccc2O1
-3.3[16.7 µM] | 12.1 | C[C@@H]1CN([C@@H](C)CO)C(=O)Cc2cc(NC(=O)C3CC3)ccc2O[C@H]1CN(C)S(=O)(=O)c1cccs1
-22.5[16.7 µM] | 1.7 | Cc1noc(C)c1NC(=O)Nc1ccc2c(c1)C(=O)N([C@H](C)CO)C[C@H](C)[C@H](CN(C)S(=O)(=O)c1cccs1)OCCCC[C@H](C)O2
7.3[16.7 µM] | -7.8 | C[C@@H]1CN([C@@H](C)CO)C(=O)c2cc(C#Cc3ccccc3F)cnc2O[C@@H]1CN(C)C(=O)Cc1ccccc1
45.0[16.7 µM] | -4.7 | C[C@H](CO)N1C[C@H](C)[C@H](CN(C)Cc2ccccc2)Oc2cc(C3=CCCC3)ccc2S1(=O)=O
-8.7[16.7 µM] | 3.0 | C[C@@H]1CN([C@H](C)CO)C(=O)c2cc(NS(=O)(=O)c3ccc(Cl)cc3)ccc2O[C@@H]1CN(C)Cc1ccccc1
-10.4[16.7 µM] | 1.5 | C/C=C/c1cnc2c(c1)C(=O)N([C@@H](C)CO)C[C@@H](C)[C@H](CN(C)C(=O)c1cccnc1)O2
-1.0[16.7 µM] | 21.1 | Cc1noc(C)c1NC(=O)Nc1ccc2c(c1)C(=O)N([C@H](C)CO)C[C@H](C)[C@@H](CN(C)S(C)(=O)=O)OCCCC[C@H](C)O2
-67.5[16.7 µM] | -5.2 | C[C@@H]1CCCCO[C@H](CN(C)C(=O)Nc2ccc(F)cc2)[C@@H](C)CN([C@H](C)CO)C(=O)c2cc(NC(=O)C3CCCCC3)ccc2O1
4.2[16.7 µM] | 31.6 | Cc1noc(C)c1NC(=O)Nc1ccc2c(c1)C(=O)N([C@H](C)CO)C[C@@H](C)[C@H](CN(C)C(=O)Nc1ccc3c(c1)OCO3)OCCCC[C@@H](C)O2
10.2[16.7 µM] | -4.2 | C[C@H](CO)N1C[C@H](C)[C@H](CN(C)C(=O)C2CC2)Oc2ncc(C#CC3CCCC3)cc2C1=O
-3.3[16.7 µM] | -8.6 | COc1cccc(-c2cn(CC[C@H]3CC[C@@H](NS(=O)(=O)c4ccccc4Cl)[C@@H](CO)O3)nn2)c1
26.1[16.7 µM] | 1.5 | C[C@@H]1CN([C@H](C)CO)S(=O)(=O)c2ccc(C#CCC3CCCC3)cc2O[C@H]1CN(C)C(=O)CC1CC1
39.8[16.7 µM] | -9.6 | C[C@@H]1CN([C@H](C)CO)C(=O)c2cc(NC(=O)Nc3cccc4ccccc34)ccc2O[C@@H](C)CCCCO[C@H]1CN(C)C(=O)c1ccccc1
-23.2[16.7 µM] | 37.9 | CCC(=O)Nc1ccc2c(c1)C(=O)N(C)[C@H]1CC[C@H](CC(=O)Nc3ccccc3OC)O[C@@H]1CO2
8.6[16.7 µM] | -5.1 | C[C@H]1CN([C@@H](C)CO)C(=O)c2cccc(NS(C)(=O)=O)c2O[C@@H]1CN(C)Cc1ccccc1
-17.2[16.7 µM] | -4.0 | CCC(=O)Nc1ccc2c(c1)C(=O)N(C)[C@H]1CC[C@H](CC(=O)NCCN3CCCCC3)O[C@H]1CO2
-1.4[16.7 µM] | -8.8 | Cn1cnc(CCNC(=O)C[C@H]2CC[C@H]3[C@@H](COC[C@@H](O)CN3C(=O)C3CCCC3)O2)c1
-6.1[16.7 µM] | -7.2 | C[C@H](CO)N1C[C@H](C)[C@@H](CN(C)C(=O)C2CC2)Oc2cc(C#C[C@@H](C)O)ccc2S1(=O)=O

# The list goes on.
HIV Env fusion | UUG fidelity | SMILES
32.4[16.7 µM] | -8.7 | CC(C)CC#Cc1ccc2c(c1)O[C@H](CN(C)Cc1ccncc1)[C@@H](C)CN([C@H](C)CO)S2(=O)=O
8.4[16.7 µM] | 0.7 | C[C@@H]1CCCCO[C@H](CN(C)Cc2ccc(C(F)(F)F)cc2)[C@H](C)CN([C@H](C)CO)C(=O)c2cc(NC(=O)CCC(F)(F)F)ccc2O1
6.4[16.7 µM] | -8.0 | Cn1cnc(CCNC(=O)C[C@@H]2CC[C@@H]3[C@H](COC[C@H](O)CN3C(=O)C3CCCC3)O2)c1
-51.4[16.7 µM] | 2.8 | Cc1noc(C)c1S(=O)(=O)N(C)C[C@H]1OCCCC[C@@H](C)Oc2ccc(NC(=O)NC(C)C)cc2C(=O)N([C@@H](C)CO)C[C@H]1C
15.3[16.7 µM] | 8.0 | C[C@@H]1CN([C@H](C)CO)C(=O)c2cc(NS(=O)(=O)c3cccs3)ccc2O[C@@H](C)CCCCO[C@@H]1CN(C)Cc1ccc(C(F)(F)F)cc1
3.8[16.7 µM] | 4.5 | O=C(C[C@H]1CC[C@@H](NC(=O)Nc2ccccc2)[C@@H](CO)O1)NCc1cccc(F)c1
-25.7[16.7 µM] | 15.4 | Cc1ccc(S(=O)(=O)Nc2ccc3c(c2)CC(=O)N([C@@H](C)CO)C[C@H](C)[C@@H](CN(C)S(=O)(=O)c2cccs2)O3)cc1
-8.5[16.7 µM] | 2.3 | Cc1noc(C)c1NC(=O)N(C)C[C@H]1OCCCC[C@H](C)Oc2ccc(NC(=O)Nc3ccc(F)cc3)cc2C(=O)N([C@@H](C)CO)C[C@@H]1C
6.4[16.7 µM] | -10.1 | O=C(C[C@@H]1CC[C@@H](NC(=O)c2cccnc2)[C@H](CO)O1)NCCN1CCCCC1

# Ordered by the number under UUG fidelity (descending): four of the compounds above
HIV Env fusion | UUG fidelity | SMILES
-25.7[16.7 µM] | 15.4 | Cc1ccc(S(=O)(=O)Nc2ccc3c(c2)CC(=O)N([C@@H](C)CO)C[C@H](C)[C@@H](CN(C)S(=O)(=O)c2cccs2)O3)cc1
3.8[16.7 µM] | 4.5 | O=C(C[C@H]1CC[C@@H](NC(=O)Nc2ccccc2)[C@@H](CO)O1)NCc1cccc(F)c1
8.4[16.7 µM] | 0.7 | C[C@@H]1CCCCO[C@H](CN(C)Cc2ccc(C(F)(F)F)cc2)[C@H](C)CN([C@H](C)CO)C(=O)c2cc(NC(=O)CCC(F)(F)F)ccc2O1
6.4[16.7 µM] | -10.1 | O=C(C[C@@H]1CC[C@@H](NC(=O)c2cccnc2)[C@H](CO)O1)NCCN1CCCCC1
